# Screening results from PubChem BioAssay.
# NS1 function inh: blocks influenza NS1 protein function; S. cerevisiae slowed by influenza A NS1, growth recovery by OD600; Potency, µM (doses to about 46.1 µM), inactives show at the highest dose activity, positive = more growth; 270,000 tested, 0.4% active; active means well fitted rising curve with a large enough effect; inconclusive means small, poorly fitted or top-dose-only effect; inactive means no such curve, though single readings can be large or run the other way; note: nearly all actives have a fitted effect of over 50% in size
#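 In this qHTS, NS1 from influenza A is expressed in budding yeast, where it slows growth. Cells are switched from glucose to 2% galactose medium (pH 6.0, -URA), treated with compound, and growth recovery is read at OD600.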
# RE007 growth inh: less growth of the S. pombe RE007 Vpr strain; S. pombe RE007 Vpr strain, BacTiter-Glo ATP luminescence, 24 h; control for the full effect not named in the record; Potency, µM (top dose mostly 92.2 µM), without a hit: at the highest dose activity change, negative = less growth; 360,000 tested, 0.21% active; AID 651644; active = well fitted falling curve with a large enough effect; inconclusive = small, poorly fitted or top-dose-only effect; inactive = no such curve, though single readings can be large or run the other way;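 note: % is set by controls: 0 for no effect and ±100 for the full control effect; nearly all actives have a fitted effect of over 50% in size; the assay follows cell death caused by Vpr and the record does not say whether a fall means rescue or toxicity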
#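 Fission yeast strain RE007, carrying one chromosomally integrated HIV-1 vpr copy, was seeded at OD 0.01 in PMG+AL medium with 23 nL pinned compound. After 24 h at 30 °C and 99% humidity, viability was read by BacTiter-Glo luminescence.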
# Lassa entry inh: Lassa virus entry inhibition. Lassa virus pseudotype entry inhibition, cell reporter; control for the full effect not named in the record. 300,000 tested, 1.2% active. AID 540256. Potency, µM (highest dose often 37.9 µM), inactives show at the top dose activity change, negative = inhibition, usual class: inhibitors; active means well fitted inhibition curve with a large enough effect; inconclusive means small, poorly fitted or top-dose-only effect, or effect the other way; inactive means flat fitted curve, though single readings scatter; tested in HEK293 cells; note: % is set by controls: 0 for no effect and ±100 for the full control effect; nearly all actives have a fitted effect of over 50% in size; luciferase read-out
# Cruzain noTriton: cruzain (T. cruzi) inhibition without detergent | P25779 | AID 1476 | Potency, µM, without a hit: max response, negative = inhibition, most hits filed as inhibitors | 200,000 tested, 2.3% active | purified cruzain, Z-FR-AMC fluorescence, no detergent;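 note: plate controls were enzyme without inhibitor for no effect and buffer without enzyme for full effect; nearly all actives have a fitted effect of over 40% in size; top concentration of the series not given in the record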
# Target sequence (P25779 123-467 limits assumed): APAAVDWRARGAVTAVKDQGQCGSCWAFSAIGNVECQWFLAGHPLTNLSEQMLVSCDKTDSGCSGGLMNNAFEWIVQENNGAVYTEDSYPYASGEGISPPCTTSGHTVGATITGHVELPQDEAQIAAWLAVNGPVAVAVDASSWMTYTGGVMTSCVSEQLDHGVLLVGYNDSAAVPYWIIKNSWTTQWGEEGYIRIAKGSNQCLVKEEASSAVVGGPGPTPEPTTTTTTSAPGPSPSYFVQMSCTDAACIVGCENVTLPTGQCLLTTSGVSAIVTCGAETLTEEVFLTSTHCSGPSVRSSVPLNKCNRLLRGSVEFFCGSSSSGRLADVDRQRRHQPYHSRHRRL
#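 Purified cruzain at 1.5 nM, pre-incubated 15 min with compound at room temperature in 100 mM sodium acetate pH 5.5, 5 mM DTT, 0.00005% Triton X-100. Reaction started with 2 uM Z-FR-AMC; AMC fluorescence increase over 60 s gives rate.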
# SARS PLpro yeast: inhibitors of SARS-CoV papain-like protease in yeast | Potency, µM (series often up to 32.9 µM), for inactives: at the top dose activity, positive = growth rescue | 330,000 tested, 0.19% active | AID 485353 | S. cerevisiae expressing SARS-CoV PLpro, growth rescue; control for the full effect not named in the record; active means well fitted rising curve with a large enough effect; inconclusive means small, poorly fitted or top-dose-only effect; inactive means no such curve, though single readings can be large or run the other way; note: 0% is about no effect; nearly all actives have a fitted effect of over 55% in size; growth read by luminescence after 48 h
# Marburg entry inh: inhibitors of Marburg virus binding or cell entry. Marburg virus pseudotyped entry inhibition, cell reporter; control for the full effect not named in the record; about a third of the inactives were read at about 46 µM. 300,000 tested, 1.8% active. Potency, µM (highest dose often 37.8 µM), without a hit: at the top dose activity change, negative = inhibition, actives largely listed as inhibitors; active = well fitted inhibition curve with a large enough effect; inconclusive = small, poorly fitted or top-dose-only effect, or effect the other way; inactive = flat fitted curve, though single readings scatter; tested in HEK293 cells; about a fifth of its hits are not listed in these tables; note: % is set by controls: 0 for no effect and ±100 for the full control effect; luciferase read-out
# Cruzain inh Det: inhibitors of Trypanosoma cruzi cruzain with detergent; AID 1478; Potency, µM, inactives show max response, negative = inhibition, most hits filed as inhibitors; 200,000 tested, 0.43% active; P25779; purified cruzain, Z-FR-AMC fluorescence, 0.01% Triton;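 note: plate controls were neutral wells for no effect and buffer without enzyme for full effect; nearly all actives have a fitted effect of over 40% in size; top concentration of the series not given in the record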
#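 Detergent-containing arm of a paired screen for aggregation-based inhibition: 0.01% Triton X-100 present. Cruzain at 1.5 nM cleaved 2 uM Z-FR-AMC at pH 5.5 with 5 mM DTT; AMC fluorescence gain over 60 s measured activity.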
# 2A StopGo: FMDV 2A StopGo reporter, luciferase signal; 410,000 tested, 1.2% active; human cells with a luciferase reporter of 2A StopGo recoding; control for the full effect not named in the record; Potency, µM (series often up to 57.9 µM), for the others: at the top dose signal change, negative = less light; active = well fitted falling curve with a large enough effect; inconclusive = small, poorly fitted or top-dose-only effect; inactive = no such curve, though single readings can be large or run the other way; tested in HEK293T cells; note: % is set by controls: 0 for no effect and ±100 for the full control effect; nearly all actives have a fitted effect of over 45% in size; luciferase light after 4 h
# * marks the source's active call; other numbers are inactive results; ? = inconclusive; nt = not tested or not shown; & = joins results of further samples; [ ] = remark or other dose. Unless noted, calls come from the whole dose curve; as a rule, active = well fitted curve in the direction sought with a large enough effect; inconclusive = small, poorly fitted or top-dose-only effect, or another doubt; inactive = no such curve, though single readings can be large; an effect the other way counts as inactive or inconclusive. Potency is the fitted concentration of half-maximal effect. Hits appear at their usual frequency (roughly 4.8% active in at least one column).
SMILES,NS1 function inh,RE007 growth inh,Lassa entry inh,Cruzain noTriton,SARS PLpro yeast,Marburg entry inh,Cruzain inh Det,2A StopGo
Cc1ccc(OC(=O)c2cccc(S(=O)(=O)N(C)C)c2)c(-n2nc3ccccc3n2)c1,17%,12%,12%,?,7%,4%[46.1 µM],3.7%,6%
CC1CCN(S(=O)(=O)c2cccc(C(=O)Nc3nccs3)c2)CC1,-34%,0%,-4%,-13%,-7%,-3%,-17%,?
CC(=O)Nc1ccc(NC(=O)CSc2ncc(C(=O)Nc3ccccc3)c(=O)n2C)cc1,nt,-16%,-24%,nt,-1%,-22%,nt,?
O=S(=O)(c1ccccc1)c1nnn2c1nc(NCc1ccccc1)c1sccc12,nt,nt,16%[46.1 µM],5%,nt,nt,-0.5%,-15%
COc1nnc(-c2ccc(N3CCOCC3)c(NC(C)=O)c2)c2ccccc12,-9%,-5%,1%,3%,7%,0%,0.6%,-19%
CSc1ccccc1NC(=O)C(C)N(C)CC(=O)N1CCN(Cc2ccccc2)CC1 (stereo not given),nt,20%,-2%,nt,nt,?,nt,-20%
CCn1c(CCNC(=O)c2ccc(OC)c(OC)c2)nc2ccccc21,-3%,13%,-23%,-1%,10%,-30%,-3.1%,-18%
CC(C)C[C@@H](CN(C)N=O)N(C[C@H](Cc1ccccc1)N(CCc1ccccc1)N=O)N=O,17%,2%,nt,nt,0%,nt,nt,-13%
Cc1ccc(C2=NN(S(C)(=O)=O)C(c3cccs3)C2)cc1 (stereo not given),1%,-28%,-17%,-4%,1%,?,-1.4%,40%[activator]
CC(C)C(NC(=O)c1ccccc1)c1nnc(SCC(=O)Nc2nccs2)n1C (stereo not given),1%,3%,0%,-6%,2%,2%,4.4%,2%
CC1CCC(C(C)C)C2=C1C(C#N)(C#N)C(C#N)(C#N)C(c1ccccc1)N2 (stereo not given),18%,0%,16%,1%,9%,-19%,-8.5%,?
Nc1c(O)ccc2c1C(=O)c1ccccc1C2=O,-26%,?,-7%,1%,-56%,?,-3.3%,-14%
CC(=O)c1cccc(NC(=O)Nc2ccc(C)cc2)c1,0%,16%,?,-2%,1%,-2%,4.9%,67%[activator]
CCOC(=O)C1CCN(C(=O)c2ccc(OC3CCN(C(=O)COC)CC3)cc2)CC1,10%,4%,nt,nt,-5%,nt,nt,2%
Nc1ccccc1-c1ccc(Cl)cc1,nt,11%,?,nt,nt,7%,nt,1%
COc1ccc(S(=O)(=O)N(C)CC(=O)N2CCC(C)CC2)cc1Cl,-36%,-24%,-12%,5%,4%,0%,0.4%,nt
O=C(/C=C/c1ccccc1)N/C(=C\c1ccco1)C(=O)NCCO,16%,8%,3%,4%,-1%,-20%[46.1 µM],-3.6%,2%
CC(=O)NNc1cccc(Cl)n1,?,-11%,3%,-3%,3%,?,4.9%,-18%
CCOc1ccc(CN(C(=O)c2cccs2)C2CCS(=O)(=O)C2)cc1 (stereo not given),-2%,-12%,3%[46.1 µM],nt,-3%,-20%[46.1 µM],nt,-9%
O=C(NC(=S)Nc1ccc(Br)cc1)C1CCCCC1,2%,-7%,nt,nt,2%,nt,nt,38%[activator]

# Compounds listed so far containing a thiophene ring, fused or not (3):
SMILES,NS1 function inh,RE007 growth inh,Lassa entry inh,Cruzain noTriton,SARS PLpro yeast,Marburg entry inh,Cruzain inh Det,2A StopGo
O=S(=O)(c1ccccc1)c1nnn2c1nc(NCc1ccccc1)c1sccc12,nt,nt,16%[46.1 µM],5%,nt,nt,-0.5%,-15%
Cc1ccc(C2=NN(S(C)(=O)=O)C(c3cccs3)C2)cc1 (stereo not given),1%,-28%,-17%,-4%,1%,?,-1.4%,40%[activator]
CCOc1ccc(CN(C(=O)c2cccs2)C2CCS(=O)(=O)C2)cc1 (stereo not given),-2%,-12%,3%[46.1 µM],nt,-3%,-20%[46.1 µM],nt,-9%

# The listing continues:
SMILES,NS1 function inh,RE007 growth inh,Lassa entry inh,Cruzain noTriton,SARS PLpro yeast,Marburg entry inh,Cruzain inh Det,2A StopGo
Cc1cccnc1NC(=O)Cn1nc(C)c([N+](=O)[O-])c1C,4%,-2%,8%,-6%,-5%,?,2.5%,-14%
O=C(NCCc1ccccn1)c1cccc(S(=O)(=O)N2CCc3ccccc32)c1,16%,1%,-4%,nt,-1%,-7%,nt,5%
COc1ccccc1-n1c(-c2ccco2)n[nH]c1=S,11%,15%,26%[46.1 µM],nt,-1%,-11%[46.1 µM],nt,-4%
CCc1ccccc1N1C(=O)c2cccc3c(N4CCOCC4)c([N+](=O)[O-])cc(c23)C1=O,5%,1%,-8%,-21%,-8%,-27%,-5.0%,0%
CCOc1ccc(CCNC(=O)c2c(C)oc3ncn(CC(C)C)c(=O)c23)cc1,nt,nt,9%[46.1 µM],4%,nt,nt,-2.5%,-9%
Cc1ccc(Nc2nnc(SCC(=O)Nc3ccc(S(=O)(=O)N4CCOCC4)cc3)s2)cc1,-12%,4%,?,-19%,8%,26%&-1%,-5.3%,29%
COc1cc(C2C3C(=O)N(Cc4ccccc4)C(=O)C3ON2c2ccccc2)cc(OC)c1O (stereo not given),13%,-14%,-5%,?,1%,-3%[46.1 µM],-5.2%,-21%
O=S(=O)(/N=S1/CC=CCN1S(=O)(=O)c1ccccc1)c1ccccc1 (stereo not given),?,-11%,-12%,-12%,1%,-1%,-18%,?
Nc1nc2n(n1)C(c1ccco1)CC(c1ccc(F)cc1)N2 (stereo not given),5%,8%,nt,2%,-8%,nt,0.6%,-12%
N#Cc1cc2c(nc1SCc1ccncc1)CCC2,-18%,6%,16%,-7%,-16%,?,-1.1%,nt
Cc1ccc(/C=N\NC(=O)Cn2nnc3ccccc32)o1,-5%,2%,1%,-1%,-1%,1%,2.2%,-4%
CCc1cc(=O)oc2c(CN3CCN(C)CC3)c(O)c(Cl)cc12,-1%,-12%,-21%,?,2%,1%,?,9%
CCOC(=O)N1CCc2c(sc3c2C(=O)NC(c2ccc(N(C)C)cc2)N3)C1 (stereo not given),nt,nt,?,-13%,nt,?,-13%,0%
O=C(Nc1cccc(OCC(=O)N2CCOCC2)c1)C1CCCCC1,-1%,-8%,24%,0%,3%,?,2.2%,27%
Cc1cccc(-n2c(-c3ccc([N+](=O)[O-])cc3)nc3ccccc3c2=O)c1,7%,6%,5%[46.1 µM],4%,2%,-9%[46.1 µM],-5.8%,-16%
CCOc1ccc(-c2nnc(SCC(=O)c3ccc(Br)cc3)n2-c2ccccc2)cc1,nt,nt,15%[46.1 µM],-2%,nt,3%[46.1 µM],0.0%,-7%
Cc1ccc(S(=O)(=O)Nc2ccc3c(c2)CCCN3C(=O)c2cccs2)cc1C,nt,nt,?,-8%,nt,nt,-6.2%,-4%
CCOc1ccc(-n2c(SCC(=O)O)nc3sc4c(c3c2=O)CCCC4)cc1,-1%,38%,2%[46.1 µM],nt,4%,-2%[46.1 µM],nt,?
COCCN(CC(=O)Nc1ccccc1C(F)(F)F)C(=O)/C=C/c1cc(Cl)c2c(c1)OCCO2,nt,18%,0%,nt,nt,-20%,nt,-10%
COC(=O)c1ccc(/C=N/NC(=O)C(=O)NCc2ccccc2)cc1,nt,4%,14%,nt,-2%,?,nt,-4%
CCCCn1c(N)c(N(CC(C)C)C(=O)c2cc(Cl)nc3ccccc23)c(=O)[nH]c1=O,nt,-6%,?,nt,4%,1%,nt,17%
CCc1ccc(S(=O)(=O)NCc2csc(C)n2)s1,-6%,-5%,-27%,9%,-18%,12%,1.0%,nt
CCc1cc2cc(C(=O)N3CCN(c4ccccc4)CC3)sc2s1,0%,-23%,?,?,0%,5%,9.0%,-7%
CSc1nc(-c2ccccc2)nc(NC(=O)C(C)C)c1C(C)=O,nt,-2%,11%,nt,1%,-14%,nt,-28%
Cn1c(=O)n(C)c2cc(NS(=O)(=O)c3ccccc3)c(NCc3ccccc3)cc21,nt,nt,-30%[46.1 µM],-3%,nt,nt,-2.8%,28%

# Random excerpt: 3 compounds from above.
SMILES,NS1 function inh,RE007 growth inh,Lassa entry inh,Cruzain noTriton,SARS PLpro yeast,Marburg entry inh,Cruzain inh Det,2A StopGo
Cc1ccc(OC(=O)c2cccc(S(=O)(=O)N(C)C)c2)c(-n2nc3ccccc3n2)c1,17%,12%,12%,?,7%,4%[46.1 µM],3.7%,6%
O=C(NCCc1ccccn1)c1cccc(S(=O)(=O)N2CCc3ccccc32)c1,16%,1%,-4%,nt,-1%,-7%,nt,5%
Cc1cccc(-n2c(-c3ccc([N+](=O)[O-])cc3)nc3ccccc3c2=O)c1,7%,6%,5%[46.1 µM],4%,2%,-9%[46.1 µM],-5.8%,-16%

# Some of these compounds in order of SMILES length, rising.
SMILES,NS1 function inh,RE007 growth inh,Lassa entry inh,Cruzain noTriton,SARS PLpro yeast,Marburg entry inh,Cruzain inh Det,2A StopGo
CCc1cc2cc(C(=O)N3CCN(c4ccccc4)CC3)sc2s1,0%,-23%,?,?,0%,5%,9.0%,-7%
CSc1nc(-c2ccccc2)nc(NC(=O)C(C)C)c1C(C)=O,nt,-2%,11%,nt,1%,-14%,nt,-28%
CCOc1ccc(-n2c(SCC(=O)O)nc3sc4c(c3c2=O)CCCC4)cc1,-1%,38%,2%[46.1 µM],nt,4%,-2%[46.1 µM],nt,?
CCCCn1c(N)c(N(CC(C)C)C(=O)c2cc(Cl)nc3ccccc23)c(=O)[nH]c1=O,nt,-6%,?,nt,4%,1%,nt,17%
COCCN(CC(=O)Nc1ccccc1C(F)(F)F)C(=O)/C=C/c1cc(Cl)c2c(c1)OCCO2,nt,18%,0%,nt,nt,-20%,nt,-10%
